# RE007 growth inh: less growth of the S. pombe RE007 Vpr strain. AID 651644. 360,000 tested, 0.21% active. S. pombe RE007 Vpr strain, BacTiter-Glo ATP luminescence, 24 h; control for the full effect not named in the record. Potency, µM (top dose mostly 92.2 µM), for the others: at the highest dose activity change, negative = less growth; active = well fitted falling curve with a large enough effect; inconclusive = small, poorly fitted or top-dose-only effect; inactive = no such curve, though single readings can be large or run the other way;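 further: on the % scale 0 is the no-effect control and ±100 the full control effect; nearly all actives have a fitted effect of over 50% in size; the assay follows cell death caused by Vpr and the record does not say whether a fall means rescue or toxicity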
#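 Fission yeast RE007 carrying one integrated HIV-1 vpr copy, seeded at OD 0.01 in PMG+AL medium with 23 nL pinned compound. Grown 24 h at 30 degrees; viability read by BacTiter-Glo luminescence after 5 min.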
# StopGo reporter: lowers the luciferase signal of an FMDV 2A StopGo reporter; human cells with a luciferase reporter of 2A StopGo recoding; control for the full effect not named in the record; Potency, µM (doses to about 57.9 µM), for the others: top-dose signal change, negative = less light; 410,000 tested, 1.2% active; active = well fitted falling curve with a large enough effect; inconclusive = small, poorly fitted or top-dose-only effect; inactive = no such curve, though single readings can be large or run the other way; tested in HEK293T cells; further: on the % scale 0 is the no-effect control and ±100 the full control effect; nearly all actives have a fitted effect of over 45% in size; luciferase light after 4 h
# NS1 inh: blocks influenza NS1 protein function. 270,000 tested, 0.4% active. Potency, µM (series often up to 46.1 µM), inactives show at the highest dose activity, positive = more growth. S. cerevisiae slowed by influenza A NS1, growth recovery by OD600. AID 2326; further: actives are rising curves; nearly all actives have a fitted effect of over 50% in size
#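 In this qHTS, NS1 from influenza A is expressed in budding yeast, where it slows growth. Cells are switched from glucose to 2% galactose medium (pH 6.0, -URA), treated with compound, and growth recovery is read at OD600.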
# LASV entry inh: blocks Lassa virus binding to or entry into cells; Lassa virus pseudotype entry inhibition, cell reporter; control for the full effect not named in the record; Potency, µM (highest dose often 37.9 µM), for inactives: top-dose activity change, negative = inhibition, usual class: inhibitors; 300,000 tested, 1.2% active; AID 540256; active means well fitted inhibition curve with a large enough effect; inconclusive means small, poorly fitted or top-dose-only effect, or effect the other way; inactive means flat fitted curve, though single readings scatter; tested in HEK293 cells; further: on the % scale 0 is the no-effect control and ±100 the full control effect; nearly all actives have a fitted effect of over 50% in size; luciferase read-out
# SARS PLpro yeast: SARS-CoV PLP inhibition in yeast; S. cerevisiae expressing SARS-CoV PLpro, growth rescue; control for the full effect not named in the record; 330,000 tested, 0.19% active; Potency, µM (doses to about 32.9 µM), for inactives: at the highest dose activity, positive = growth rescue; AID 485353; further: 0% is about no effect; nearly all actives have a fitted effect of over 55% in size; growth read by luminescence after 48 h
# Marburg entry inh: inhibitors of Marburg virus binding or cell entry; Marburg virus pseudotyped entry inhibition, cell reporter; control for the full effect not named in the record; about a third of the inactives were read at about 46 µM; Potency, µM (highest dose often 37.8 µM), inactives show top-dose activity change, negative = inhibition, usual class: inhibitors; 300,000 tested, 1.8% active; AID 540276; active = well fitted inhibition curve with a large enough effect; inconclusive = small, poorly fitted or top-dose-only effect, or effect the other way; inactive = flat fitted curve, though single readings scatter; tested in HEK293 cells; about a fifth of its hits are not listed in these tables; further: on the % scale 0 is the no-effect control and ±100 the full control effect; luciferase read-out
# Cruzain inh Det: blocks cruzain activity in presence of Triton detergent; purified cruzain, Z-FR-AMC fluorescence, 0.01% Triton; 200,000 tested, 0.43% active; Potency, µM, for the others: max response, negative = inhibition, usual class: inhibitors; P25779; active means well fitted curve in the direction sought with a large enough effect; inconclusive means small, poorly fitted or top-dose-only effect, or another doubt; inactive means no such curve, though single readings can be large; an effect the other way counts as inactive or inconclusive;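 further: plate controls were neutral wells for no effect and buffer without enzyme for full effect; nearly all actives have a fitted effect of over 40% in size; top concentration of the series not given in the record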
# Target sequence (P25779 123-467 limits assumed): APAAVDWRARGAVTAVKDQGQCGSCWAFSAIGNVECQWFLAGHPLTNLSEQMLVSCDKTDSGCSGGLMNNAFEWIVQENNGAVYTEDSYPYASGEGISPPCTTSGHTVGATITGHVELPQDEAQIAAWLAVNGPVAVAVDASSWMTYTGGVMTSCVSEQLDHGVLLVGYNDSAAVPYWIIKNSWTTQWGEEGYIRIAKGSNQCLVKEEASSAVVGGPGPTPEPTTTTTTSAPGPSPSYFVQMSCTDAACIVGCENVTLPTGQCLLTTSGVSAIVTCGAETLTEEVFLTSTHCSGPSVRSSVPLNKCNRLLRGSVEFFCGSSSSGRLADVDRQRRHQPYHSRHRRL
#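 Z-FR-AMC hydrolysis (2 uM substrate) by cruzain (1.5 nM) monitored kinetically at ex 360/em 450 nm after 15 min room-temperature compound exposure; 0.01% Triton X-100, pH 5.5, 5 mM DTT.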
# Cruzain noTriton: inhibitors of Trypanosoma cruzi cruzain without detergent; purified cruzain, Z-FR-AMC fluorescence, no detergent; Potency, µM, for inactives: max response, negative = inhibition, usual class: inhibitors; 200,000 tested, 2.3% active; AID 1476; active means well fitted curve in the direction sought with a large enough effect; inconclusive means small, poorly fitted or top-dose-only effect, or another doubt; inactive means no such curve, though single readings can be large; an effect the other way counts as inactive or inconclusive;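 further: plate controls were enzyme without inhibitor for no effect and buffer without enzyme for full effect; nearly all actives have a fitted effect of over 40% in size; top concentration of the series not given in the record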
#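 Detergent-free condition (0.00005% Triton X-100) in acetate buffer pH 5.5 with DTT. 1.5 nM enzyme and compound were pre-mixed 15 min, then 2 uM Z-FR-AMC substrate added; reaction progress from fluorescence change between first and third reads (60 s).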
# Starred values were filed as active, the others as inactive; ? = inconclusive; . = not tested or not shown; & = joins results of further samples; [ ] = another dose, or the depositor's remark. Unless noted, the call rests on the fitted dose curve; in most records, active means well fitted rising curve with a large enough effect; inconclusive means small, poorly fitted or top-dose-only effect; inactive means no such curve, though single readings can be large or run the other way. Potency means the concentration at half of the fitted maximal effect.
SMILES,RE007 growth inh,StopGo reporter,NS1 inh,LASV entry inh,SARS PLpro yeast,Marburg entry inh,Cruzain inh Det,Cruzain noTriton
NNC(=O)CC1NCCN(Cc2ccccc2)C1=O (stereo not given),2%,-2%,2%,0%,2%,?,.,.
CCOc1ccc(Cc2nc(N)nc(N)n2)cc1,4%,21%,0%,3%,4%,-7%,-0.6%,-7%
CCOc1ccc(NC2=NCCC(=O)N2Cc2cccs2)cc1,11%,-5%,-20%,13%,-2%,0%,1.8%,-1%
CCCCc1cc(=O)oc2c(C)c(OCC(=O)N3CCCC3)ccc12,14%,-10%,-18%,9%,-4%,-10%,.,.
CN1C(=O)C(CC(=O)Nc2ccc(Cl)cc2)N(Cc2ccco2)C1=S (stereo not given),6%,-7%,11%,-1%,1%,-16%,.,.
COc1ccc(Cl)cc1C(=O)OCC(=O)NCCNC(=O)COC(=O)c1cc(Cl)ccc1OC,8%,-8%,-11%,.,-7%,.,.,.
COc1cccc(OC)c1C(=O)OCC(=O)Nc1cccnc1Cl,3%,-4%,-1%,-15%,0%,-1%,.,.
COc1ccc(Oc2cn[nH]c2-c2ccc(O)cc2O)cc1,14%,?,-125%,?,-2%,?,-3.6%,-14%
CC(=O)Nc1cccc(NC(=O)CSc2cn(CC(=O)N3CCCC3)c3ccccc23)c1,.,2%,.,22%[46.1 µM],.,.,-1.7%,-2%
NC(=O)c1ccc(NC(=O)COC(=O)c2c3c(nc4ccccc24)/C(=C\c2cccs2)CCC3)cc1,-17%,-26%,12%,?,-22%,?,-2.2%,?
Cc1ccc(/C=C/C(=O)N2CCCC(C(N)=O)C2)o1 (stereo not given),7%,9%,3%,.,0%,.,.,.
COc1ccc(C(=O)ON=C2c3ccccc3-c3ccccc32)cc1OC,10%,-12%,8%,22%,13%,?,-2.5%,26%
COc1ccc(N2CCN(c3cc(C)nc4nncn34)CC2)cc1,.,-25%,.,-11%[46.1 µM],.,-5%[46.1 µM],0.0%,-2%
O=C(c1cc([N+](=O)[O-])cc([N+](=O)[O-])c1)N1CCOCC1,23%,-10%,0%,3%,-11%,?,-1.9%,-1%
COc1ccc(NC(=O)Cn2nc(C)c3c(C)n(-c4ccccc4)nc3c2=O)cc1OC,.,-15%,.,-5%[46.1 µM],.,.,-3.8%,-6%
N#Cc1cc2c(cc1NC(=O)CCn1cnnn1)OCO2,8%,-7%,-9%,.,16%,.,.,.
CCOC(=O)N/N=C\c1sccc1C,?,10%,9%,14%[46.1 µM],0%,?,0.5%,16%
CCn1c(CC(=O)Nc2ccc(C)cc2)n[nH]c1=S,28%,2%,.,-3%,2%,21%[46.1 µM],.,.
CCOc1ccc(/C=C2\SC(=O)N(c3ccc(O)cc3)C2=O)cc1OC,10%,-32%,0%,.,3%,.,.,.
Cc1ccc(C(=O)Nc2ccccc2C(=O)NC(Cc2c[nH]c3ccccc23)C(=O)O)cc1 (stereo not given),4%,25%,11%,?,0%,23%[46.1 µM],.,.
OC1CCN(CC(O)C(F)(F)F)CC1 (stereo not given),3%,9%,9%,8%[46.1 µM],1%,7%[46.1 µM],.,.
COc1cc(C(=S)N2CCCC2)cc(OC)c1OS(=O)(=O)c1ccc(NC(C)=O)cc1,0%,-16%,-12%,?,-1%,7%,-4.0%,11%
C#CCN1C(=O)C(O)(CC(=O)/C=C/c2ccco2)c2ccccc21 (stereo not given),-7%,-16%,8%,.,1%,.,.,.
Cc1ccc(CNC(=O)CN2C(=O)C3(SCC(=O)N3c3ccc(F)c(F)c3)c3ccccc32)cc1 (stereo not given),.,5%,.,-4%[46.1 µM],.,.,-4.3%,2%
CCn1c(Cn2nnc(-c3ccccc3)n2)nnc1SCC(=O)Nc1ccc(N(C)C)cc1,6%,.,5%,-21%,2%,1%&2%,0.6%,-7%
CC(=O)c1cccc(N(CC(=O)Nc2ccc(S(=O)(=O)N3CCOCC3)cc2)S(C)(=O)=O)c1,-9%,15%,-1%,-14%,1%,-1%,.,.
O=S(=O)(Cc1ccc(Cl)cc1)c1ncc(CO)n1Cc1ccccc1,13%,-27%,-7%,0%[46.1 µM],0%,?,.,.
O=C(NN1C(=O)c2ccccc2NC1c1ccccn1)c1ccc([N+](=O)[O-])cc1 (stereo not given),22%,-23%,-6%,1%,-28%,-11%,-1.0%,-6%
COc1ccccc1NS(=O)(=O)c1cccc(C(=O)NNC(=O)C(NC(N)=O)C(C)C)c1 (stereo not given),12%,17%,-1%,.,0%,.,.,.
COC(=O)[C@H](Cc1ccccc1)NC(=O)O[C@@H]1C(=O)c2cc(OC)ccc2O[C@H]1c1cccc(OC)c1,.,.,.,?,.,?,-1.0%,1%
CCOC(=O)c1c(C)n(-c2ccc(C)cc2)c2c(CC(C)=O)c(Br)c(OC)c(O)c12,9%,0%,2%,2%,0%,16%,3.4%,-1%
COc1ccc(OC)c(CNc2nc3ccc(C)cc3n3nnnc23)c1,.,-2%,.,-8%[46.1 µM],.,.,-1.1%,2%
O=C(CSc1nnc(-c2cccs2)o1)NCc1ccco1,0%,-11%,.,3%,-5%,15%[46.1 µM],.,.
O=S(=O)(Oc1ccccc1C(=S)N1CCOCC1)c1ccc(Cl)cc1,-13%,-28%,-3%,?,-1%,-22%,.,.
Cc1sc2ncnc(OCc3nnc(-c4cccs4)o3)c2c1C,26%,-13%,.,-3%,-3%,4%[46.1 µM],.,.
Cc1[nH]nc(N2CCCCCC2)c1[N+](=O)[O-],-11%,-2%,-11%,-15%,-4%,8%,2.1%,7%
CCCCCn1c(=O)[nH]c2cc(C(=O)Nc3ccc(F)c(F)c3)ccc2c1=O,.,-23%,.,5%[46.1 µM],.,16%[46.1 µM],0.6%,?
CCCCCN(C(=O)CCC(=O)OCC(=O)N(C)Cc1ccc(C)cc1)c1c(N)n(CCCC)c(=O)[nH]c1=O,-8%,-2%,-9%,-3%,1%,-1%,.,.
COC(=O)CN1C(=O)[C@H]2[C@@H](/C=C/c3ccccc3)N3C(=O)CN(CCO)C(=O)[C@@]3(Cc3ccccc3)[C@H]2C1=O,18%,-5%,-5%,.,-4%,.,.,.
CC(OC(=O)CNC(=O)c1cccs1)C(=O)Nc1ccc(S(N)(=O)=O)cc1 (stereo not given),1%,-5%,.,18%,2%,5%,.,.
Cn1c(=O)[nH]c(=O)c2c1nc(CN(Cc1ccccc1)Cc1ccccc1)n2CCN1CCOCC1,-3%,2%,-20%,-23%[14.3 µM],2%,-2%&-17%,3.2%,?
COc1ccc(Cl)cc1C(=O)Nc1sc2c(c1C(=O)OC(C)C)CCCC2,.,-16%,.,2%[46.1 µM],.,.,-0.2%,-2%
CCOC(=O)c1noc2ncn(CC(=O)Nc3cccc(C(F)(F)F)c3)c(=O)c12,.,-11%,.,4%[46.1 µM],.,.,-7.0%,2%
O=C(CNC(=O)c1ccc2c(c1)OCCO2)N=Nc1c(O)[nH]c2ccccc12,-6%,3%,-2%,.,-2%,.,.,.
Cc1cc2c3c(c1)C1(C(=O)N3C(C)(C)CC2C)C(C#N)=C(N)Oc2cc(O)ccc21 (stereo not given),0%,-21%,-2%,-9%,3%,-3%,-8.0%,?
CCC(Sc1nc2c(sc3ccccc32)c(=O)n1CCc1ccc(OC)c(OC)c1)C(=O)N(CC)CC (stereo not given),.,-6%,.,?,.,.,-3.3%,?
CC1=C(C(N)=O)C(c2cccs2)n2nc(-c3cccc(Cl)c3)nc2N1 (stereo not given),-1%,0%,0%,3%,7%,-5%,-2.5%,-14%
CCOCc1cc(C)[nH]c(=O)c1C#N,35%,3%,-5%,5%,2%,?,-8.7%,-9%
COc1ccc(/C=C2\CCOC2=O)cc1,-16%,0%,-1%&-9%,?,2%&-1%,17%&17%,-1.5%,3%
Cc1cccc(CS(=O)(=O)Cc2ccc(C(=O)NCCCN3CCOCC3)o2)c1,-11%,-14%,-6%,-13%,19%,?,5.0%,-5%
CCOC(=O)N1CCN(Cc2nc3cc(NC(=O)c4ccccc4Cl)ccc3n2C(C)C)CC1,.,?,.,-19%[46.1 µM],.,?,-4.8%,21%
O=C(CCn1c(=O)oc2ccccc21)N1CCN(C(c2ccccc2)c2ccccc2)CC1,-25%,?,-45%,?,?,?,-2.7%,10%
O=C(NC(Cc1ccccc1)C(=O)O)OCc1ccccc1 (stereo not given),4%,-17%,2%,17%,-5%,3%,6.7%,-4%
CCOc1ccc(C(=O)NCc2ccc3c(c2)CCN3C(=O)c2ccc(C)cc2)cc1OCC,.,-4%,.,-6%[46.1 µM],.,.,-3.6%,-7%
Cc1nn(-c2ccccc2)c(Cl)c1CN(C(=O)CCl)c1ccc(Cl)cc1,11%,-4%,-38%,?,-13%,?,-6.2%,16%
CCn1c(=O)c2c(nc3n2CCCN3c2cccc(C)c2)n(C)c1=O,5%,-7%,-5%,3%,-1%,-6%[46.1 µM],.,.
Cc1cc(C(=O)NCc2ccc3c(c2)OCO3)n(-c2ccccc2)n1,-3%,0%,?,.,-1%,.,-1.7%,-2%
CCCn1c(=NC(=O)CS(=O)(=O)c2ccccc2)sc2cc(S(C)(=O)=O)ccc21,-13%,-12%,.,-16%,-2%,-25%,.,.
COc1ccc(N(C)C(=O)Cn2cnc3sc(C)c(S(=O)(=O)N4CCN(c5ncccn5)CC4)c3c2=O)cc1,.,-14%,.,25%[46.1 µM],.,4%[46.1 µM],-1.6%,-4%
O=C(CNS(=O)(=O)c1ccccc1)OCc1cccc([N+](=O)[O-])c1,-5%,-1%,-34%,5%,18%,20%,-4.8%,10%
Cc1ccc(/C=C/c2onc(C)c2S(=O)(=O)N2CCC(C(=O)Nc3cc(C)ccc3C)CC2)cc1,.,-14%,.,5%[46.1 µM],.,.,0.3%,-1%
Cc1cc(=O)[nH]c(SCc2cccc3ccccc23)n1,0%,-1%,-9%,18%,-2%,?,.,.
CN(C)CCNC(=O)Cc1ncc(C(F)(F)F)cc1Cl,-9%,11%,.,-2%,2%,-9%[46.1 µM],.,.
